Sfp PPTase inh = qHTS Assay for Inhibitors of Bacillus subtilis Sfp phosphopantetheinyl transferase (PPTase); 4'-phosphopantetheinyl transferase ffp (Bacillus subtilis), Q9F4F7; Biochemical Sfp PPTase activity, qHTS; Potency, µM, without a hit: max response, negative = inhibition, usual class: inhibitors; actives 3.5% (n = 310,000); AID 1490, 2009; active = well fitted inhibition curve with a large enough effect; inconclusive = small, poorly fitted or top-dose-only effect, or another doubt; inactive = no such curve, though single readings can be large or run the other way;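 note: the enzyme is Sfp with the accession as filed and its product quenches rhodamine fluorescence; potency is the fitted concentration of half-maximal effect; 0% = enzyme reaction without inhibitor and -100% = no enzyme wells; top concentration of the series not given in the record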
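Buffer: 50 mM Hepes-Na pH 7.6, 10 mM MgCl2, 0.01% Nonidet P-40, 0.01% BSA. Enzyme 15 nM, pre-exposed to compound 15 min; substrates then added and fluorescence change tracked over 30 min.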
Six1-Eya2 inh = qHTS Assay for Inhibitors of the Six1/Eya2 Interaction. AlphaScreen GST-Six1/His-Eya2 binding, biochemical; stronger effect = lower value; control for the full effect not named in the record. activity change, % (test concentration not listed). Homeobox protein SIX1 (Homo sapiens) + Protein phosphatase EYA2 (Homo sapiens), …. actives 0.56% (n = 360,000); in the data active = activity change below about -65%; inconclusive = about -30% to -65%; inactive = above about -30%; note: % is set by controls: 0 for no effect and ±100 for the full control effect; compound concentration not given in the record
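Homogeneous AlphaScreen proximity assay pairing GST-Six1 with His-tagged Eya2 (added as 5X mix: 250 nM and 500 nM) in 50 mM Tris pH 8.0, 300 mM NaCl, 1 mM TCEP. Glutathione donor and nickel acceptor beads; 1 h, 37 °C, dark.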
D2 PAM = Beta-Arrestin HTS for Positive Allosteric Modulators of the Human D2 Dopamine Receptor: Potentiators. D(2) dopamine receptor (Homo sapiens), P14416. DiscoveRx D2 beta-arrestin cells, luminescence, 90 min; 100% = 57 uM dopamine signal. potentiation, % (test concentration not listed). actives 0.23% (n = 360,000). AID 624464, 2012; active = potentiation of 50% or more; inconclusive = 30% to 50%; inactive = 30% or less;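 note: compound concentration not given in the record; tested on top of an EC20 dose of dopamine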
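D2 cells co-treated with compound plus 50 nM dopamine (EC20) for 90 min at 37 deg C to detect potentiation. Beta-arrestin recruitment was read as enzyme-fragment luminescence after 1 h at ambient temperature. Full response was set by 57 uM dopamine.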
PINK1 modulator = A Quantitative High throughput Screen to Identify Chemical Modulators of PINK1 Expression; PINK1 immunofluorescence, high-content cytometry, 24 h; Potency, µM (highest dose often 76.6 µM), for the others: top-dose activation (PINK1 increase), hits mostly activators; actives 0.2% (n = 410,000); AID 624263, 2012; active = well fitted activation curve with a large enough effect; inconclusive = small, poorly fitted or top-dose-only effect; inactive = flat fitted curve, though single readings scatter; cell line not stated here;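 note: potency is the fitted concentration of half-maximal effect; % of control where 0% means no effect; nearly all actives have a fitted effect of over 65% in size; a mitochondrial uncoupler was the plate control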
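Fluorescence from anti-PINK1 antibody, together with nuclear and cell stains, was scanned on a laser-scanning cytometer. Before staining, stable-line cells were incubated 24 hours with compounds at 5 concentrations; primary antibody 12 h at 10 degrees C.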
D2 agonist = Beta-Arrestin HTS for Positive Allosteric Modulators of the Human D2 Dopamine Receptor: Agonists; actives 0.084% (n = 360,000); activation, % (concentration not given with the values); DiscoveRx PathHunter D2 beta-arrestin, luminescence, 90 min; 100% = 57 uM dopamine signal; D(2) dopamine receptor (Homo sapiens), P14416; in the data active = activation above about 40%; inconclusive = about 15% to 40%; inactive = below about 15%; note: compound concentration not given in the record; the text of the record calls up to 30% inactive
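DiscoveRx PathHunter D2 beta-arrestin cells (2,100/well) attached overnight, then compound-stimulated 90 min at 37 C in HBSS/10 mM HEPES/0.1% Tween-20 buffer; beta-galactosidase complementation read by luminescence after 1 h at ambient temperature. Dopamine 57 uM final (EC100) as control.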
CtBP-E1A inh = qHTS Assay for Inhibitors of the CtBP/E1A Interaction | AID 651724, 2012 | AlphaScreen GST-E1A/His-CtBP binding, 1536-well; stronger effect = lower value; control for the full effect not named in the record | activity change, % (no concentration beside the values) | actives 0.49% (n = 340,000); in the data active means activity change below about -65%; inconclusive means about -30% to -65%; inactive means above about -30%; note: % is set by controls: 0 for no effect and ±100 for the full control effect; compound concentration not given in the record
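GST-E1A and His-tagged CtBP (125 nM each as 5X stock) were preincubated with pin-transferred compound for 2 h at 37 °C in the dark, then glutathione donor and nickel acceptor beads were added for 1 h before AlphaScreen reading.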
TRPV1 PAM = HTS Assay for Compounds that Act as Potentiators of the Vanilloid Receptor 1; TRPV1-expressing cells, Fluo-8 calcium influx, capsaicin EC20 potentiation; host cell line not named in the record; control for the full effect not named in the record; Transient receptor potential cation channel subfamily V member 1 (Homo sapiens), Q8NER1; actives 0.02% (n = 320,000); potentiation, % at 8.33 µM; AID 540277, 2011; active means potentiation above 80%; inconclusive means 30% to 80%; inactive means below 30%; note: 0% is about no effect
Target sequence (Q8NER1 whole entry, looked up): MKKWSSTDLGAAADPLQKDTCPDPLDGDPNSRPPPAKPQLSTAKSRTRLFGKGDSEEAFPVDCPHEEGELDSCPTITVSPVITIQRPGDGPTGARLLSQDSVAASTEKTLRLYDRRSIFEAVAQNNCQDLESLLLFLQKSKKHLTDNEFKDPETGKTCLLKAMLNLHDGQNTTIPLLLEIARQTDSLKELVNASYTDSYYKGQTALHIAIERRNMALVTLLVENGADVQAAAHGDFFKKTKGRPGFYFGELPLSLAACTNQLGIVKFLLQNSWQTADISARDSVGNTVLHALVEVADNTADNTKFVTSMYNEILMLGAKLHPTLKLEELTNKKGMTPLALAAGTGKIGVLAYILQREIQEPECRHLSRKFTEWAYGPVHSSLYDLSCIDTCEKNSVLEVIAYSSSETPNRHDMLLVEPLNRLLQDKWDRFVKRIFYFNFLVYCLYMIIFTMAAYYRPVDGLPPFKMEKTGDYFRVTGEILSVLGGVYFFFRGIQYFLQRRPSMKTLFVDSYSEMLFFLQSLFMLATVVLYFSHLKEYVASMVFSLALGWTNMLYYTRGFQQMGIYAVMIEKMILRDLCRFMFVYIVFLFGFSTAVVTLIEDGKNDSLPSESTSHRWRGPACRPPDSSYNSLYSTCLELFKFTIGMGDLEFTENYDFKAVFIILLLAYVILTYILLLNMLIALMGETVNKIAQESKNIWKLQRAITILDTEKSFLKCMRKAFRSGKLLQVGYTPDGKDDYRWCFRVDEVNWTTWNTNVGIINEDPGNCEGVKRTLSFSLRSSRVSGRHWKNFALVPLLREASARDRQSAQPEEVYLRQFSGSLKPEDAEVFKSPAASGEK
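Cells expressing TRPV1 were dye-loaded with Fluo-8 and read kinetically: 10 s baseline, 3 min after compound (agonist portion), then 2 min after EC20 capsaicin (allosteric enhancer portion). Calcium-bound dye fluorescence at 480/520 nm.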
An asterisk follows results filed as active; ? = inconclusive; nt = no result given; [ ] = another dose, or the depositor's remark.

SMILES	Sfp PPTase inh	Six1-Eya2 inh	D2 PAM	PINK1 modulator	D2 agonist	CtBP-E1A inh	TRPV1 PAM
CCN(CC)S(=O)(=O)c1cccc(N=Nc2sc(N)nc2C)c1	-2.0%	?	-22.9	-1.4%	-4.5	?	-20.0
COc1cccc(NC(=O)c2ccc3c(c2)C(=O)N(CC2CCCO2)C3=O)c1 (stereo not given)	3.2%	1.8	1.3	-1.3%	4.7	-13.5	5.4
CC(NC(=O)Nc1cccc([N+](=O)[O-])c1)c1ccc2c(c1)OCO2 (stereo not given)	-3.6%	-6.7	-22.1	3.0%	-1.5	-20.7	-5.1
COc1ccc(NC2CCCN(C(=O)C3=NN(C)C(=O)CC3)C2)cc1OC (stereo not given)	13.8%	0.0	-0.3	-0.6%	7.4	1.0	13.3
O=S(=O)(NCC1CC1)c1cccc(S(=O)(=O)N2CCCC2)c1	2.6%	14.4	-7.7	-0.6%	0.2	-1.2	10.0
CCc1nc2nc(C)c(NS(=O)(=O)c3ccc(F)cc3)c(=O)n2[nH]1	9.6%	0.7	-1.0	2.0%	3.5	-3.6	-12.6
O=[N+]([O-])c1ccccc1S(=O)(=O)N(CC(O)CN1CCCCC1)c1ccccc1 (stereo not given)	-4.9%	5.7	-8.2	3.8%	-3.6	0.9	23.7
CCOC(=O)c1ccccc1NC(=O)Cn1cnc2c(cnn2C(C)(C)C)c1=O	3.7%	10.2	-13.1	-0.3%	-3.8	4.5	-30.1
O=C(Nc1cccc(C(F)(F)F)c1)OCc1ccncc1	nt	-3.5	-12.5	0.5%	-4.0	-7.8	nt
CC(Oc1ccccc1)C(=O)Nc1cccc(NC(=O)c2ccco2)c1 (stereo not given)	-10.7%	0.9	-17.5	-0.6%	-1.8	1.4	-15.4
CC(=NNC(=S)N1CC2CCC(CC2)C1)c1cnccn1	nt	-92.1*	97.2*	-0.5%	?	-93.9*	nt
CSc1ccc(S(=O)(=O)NCc2ccccc2C)cc1	7.4%	4.7	-8.4	-0.2%	7.5	nt	-6.3
CC1CCN(Cc2nc(-c3ccccc3)no2)CC1	2.4%	-0.5	-28.5	6.1%	-2.6	-5.3	4.9
COc1cc(/C=C/c2cc(C(=O)O)c3ccccc3n2)cc(OC)c1O	-13.7%	-5.0	14.8	1.9%	7.1	-3.1	-19.0
COC(=O)c1ccc(CN2C(=O)C(Cc3ccccc3)ON=C2c2ncccc2C)o1 (stereo not given)	nt	-3.2	1.3	0.1%	7.2	1.5	nt
CCc1ccccc1NC(=S)NC1CC2CCC(C1)N2Cc1ccc(F)cc1 (stereo not given)	0.6%	-12.1	-6.0	1.2%	-0.4	2.0	5.9
O=C(C1CCC(=O)N(C2CC2)C1)N1CCN(c2ccccc2Cl)CC1 (stereo not given)	3.8%	3.6	-9.3	0.2%	-3.6	11.8	11.1
Cc1cc(NC(=O)CSc2nc3c(c(=O)n(C)c(=O)n3C)n2C(C)C)no1	9.6%	-1.8	-3.2	-1.6%[38.3 µM]	-2.1	-2.1	7.5
CS(=O)(=O)c1ccc2nc(NC(=O)c3cc4ccccc4o3)sc2c1	8.5%	2.5	0.0	-1.1%	-0.5	-1.4	-4.5
C[C@H]1CN([C@@H](C)CO)C(=O)c2cc(-c3ccccc3F)cnc2O[C@@H]1CN(C)C(=O)NC1CCCCC1	nt	-2.7	-6.9	0.4%	-8.4	6.1	nt
Cc1cc2oc(=O)cc(CN3CCN(S(=O)(=O)/C=C/c4ccccc4)CC3)c2cc1C	8.9%	1.1	-9.0	0.0%	-0.1	-1.4	24.8
COc1cccc(CNC(=O)C2CCN(S(=O)(=O)c3cccc4cccnc34)CC2)c1	15.2%	-4.2	-10.1	0.1%	-3.9	-4.8	3.6
COc1ccc(-c2nc3ccc(Cl)cn3c2NC2CCCCC2)cc1SC1CCCCC1	nt	3.5	-7.1	6.7%	-1.8	4.5	nt
CC(N)C12CC3CC(C1)CC(C(C)N)(C3)C2 (stereo not given)	5.0%	1.9	-12.4	-1.3%	-4.9	-2.4	-1.5
COc1ccc(NC(=O)CSc2nc(N)c(-c3ccccc3)c(=O)[nH]2)cc1	-0.6%	6.1	-2.1	-3.1%[38.3 µM]	-2.6	16.0	-5.4
C=CCSc1nc2c(c(=O)[nH]1)C(c1ccccc1)C(C#N)=C(N)O2 (stereo not given)	6.1%	-1.4	-1.0	-0.7%	2.4	-0.9	1.5
CC1=NN(c2ccccc2)C(=O)/C1=C\C=C1\N(C)c2ccccc2C1(C)C	-7.0%	?	-20.6	0.8%	-11.2	?	-0.8
CCOC(=O)CC1C(=O)NCCN1C(=O)COc1ccc(C(C)(C)C)cc1 (stereo not given)	0.9%	4.8	-0.1	0.4%	-1.9	2.2	1.7
Cc1c(Cl)cccc1-n1c(SCC(=O)N2CCC(C(=O)O)CC2)nc2ccccc2c1=O	1.2%	8.4	-3.9	1.8%	0.0	-14.2	0.7
CC1CCCCN1C(=O)COc1ccccc1F (stereo not given)	19.7%	8.4	-1.0	0.4%	-3.4	5.6	4.0
CCOC(=O)N1CCC(NC(=O)c2ccc3c(c2)N=C(C)c2ccccc2S3)CC1	18.1%	-0.9	-8.3	0.0%	-7.6	-0.4	-8.8
Cc1ccc(-c2nnc(Nc3ccccc3)c3ccccc23)cc1S(=O)(=O)NCC1CCCO1 (stereo not given)	-7.5%	-22.4	-10.9	0.6%[38.3 µM]	-0.8	-25.6	5.3
COc1ccc(NC(=O)COC(=O)Cn2cnc3ccccc32)cc1	nt	3.6	13.8	0.9%	-0.9	23.6	nt
CCCOC(=O)C1=C(C)NC2=C(C(=O)CCC2)C1c1cccc(OC)c1OC (stereo not given)	8.8%	-1.8	-6.5	-4.0%[38.3 µM]	0.3	0.0	3.7
CCOC(=O)N1CCN(C(=O)/C(=C\c2ccc(SC)cc2)NC(=O)c2ccccc2)CC1	-0.5%	-10.4	-2.9	-1.9%	-4.6	-23.7	0.2
O=C(Cc1ccc(Cl)cc1)N/N=C/c1ccc(O)c(O)c1	nt	-13.2	-11.7	1.7%	7.1	3.3	nt
CN(C)CCCN1c2ccc3ccccc3c2Sc2cccc(Cl)c21	nt	4.1	2.1	-7.2%	?	-2.8	nt
COc1ccccc1N(C(=O)c1csnn1)C(C(=O)NC1CCCC1)c1ccccc1 (stereo not given)	11.5%	1.2	-0.5	-1.6%	-2.7	-1.6	-17.8
COc1ccccc1Nc1nc(N)nc(-c2cc3ccccc3o2)n1	6.4%	-6.2	2.8	7.0%	-2.1	-8.1	9.7
COc1ccc(C(=O)c2cn[nH]c2-c2cc(Cl)ccc2O)cc1	5.9%	-22.6	1.7	-4.2%[38.3 µM]	1.7	?	-9.7
Cc1ccnc(NS(=O)(=O)c2ccc(NS(=O)(=O)Cc3ccccc3)cc2)n1	-6.5%	-23.0	-0.2	0.7%	-3.9	-6.9	-0.4
CCc1ccc(NC2=CC(=O)CC(c3ccco3)C2)cc1 (stereo not given)	?	-2.7	-14.4	3.1%	-4.3	2.3	-8.8
C[C@H](CO)N1C[C@H](C)[C@@H](CN(C)C(=O)Nc2ccccc2)Oc2c(NS(=O)(=O)c3ccc(F)cc3)cccc2C1=O	nt	9.1	-1.6	0.5%	-4.5	-0.1	nt
O=C(CSc1nnnn1C1CCCCC1)Nc1ccc(F)cc1	20.3%	-2.7	-0.7	10.3%	-1.8	0.0	-11.4
Cc1ccc(NC(=O)Cc2nn(C)c(=O)c3ccccc23)cc1F	-9.3%	-7.7	-5.3	11.6%	2.5	2.9	10.9
O=C(C1CC1)N1CCc2cc(S(=O)(=O)NCc3ccccc3)ccc21	5.3%	3.9	-11.9	0.9%	-2.7	nt	8.4
CCC(C)(C)C1CCc2c(sc(N)c2C(N)=O)C1 (stereo not given)	-26.1%	-3.0	3.4	0.5%	3.9	0.4	5.8
CC1=C(C(=O)N2CCOCC2)CC(CC(=O)NC2CCCC2)C(=O)N1Cc1ccc(F)cc1 (stereo not given)	nt	-12.7	1.6	1.9%	-4.4	3.6	nt
O=C(O)c1nn(Cc2ncc(-c3cccc(Cl)c3)o2)c(=O)c2ccccc12	9.5%	12.4	0.9	-2.1%	3.9	18.8	-16.6
O=C(Nc1cccc(Cl)c1)Nc1ccccc1C(=O)NCc1ccco1	-15.6%	-25.9	-10.2	3.5%	-3.6	1.9	-3.9
CCCCCc1nnc(NC(=O)c2ccc3nc[nH]c3c2)s1	nt	2.0	-6.5	-0.9%	1.2	-6.9	-12.8
Cc1ccc(OCc2nnc(SCC(=O)Nc3cccc4ccccc34)n2-c2ccccc2)cc1	-11.8%	-8.6	-8.7	2.5%	-3.3	-4.8	?
C/C(=C1\SC(N2CCOCC2)=NC1=O)c1ccc(C)cc1	-8.4%	0.9	-15.2	-0.5%	-4.5	0.7	-34.6
O=C(CN1C(=O)NC2(CCc3ccccc32)C1=O)NCc1ccc(Cl)cc1 (stereo not given)	nt	6.2	-2.8	1.1%	-1.7	-15.7	nt
COc1ccccc1CNC(=O)COC(=O)Cc1ccc(Br)cc1	nt	-1.9	-16.2	2.9%	-2.4	-4.9	nt

Complete entries from above. Order of screens: Sfp PPTase inh | Six1-Eya2 inh | D2 PAM | PINK1 modulator | D2 agonist | CtBP-E1A inh | TRPV1 PAM
Cc1ccnc(NS(=O)(=O)c2ccc(NS(=O)(=O)Cc3ccccc3)cc2)n1 across the screens: -6.5% | -23.0 | -0.2 | 0.7% | -3.9 | -6.9 | -0.4
O=C(O)c1nn(Cc2ncc(-c3cccc(Cl)c3)o2)c(=O)c2ccccc12 across the screens: 9.5% | 12.4 | 0.9 | -2.1% | 3.9 | 18.8 | -16.6

Screening results from PubChem.

No enrichment for hits. Share with any hit: about 3.7%.
